Screens (PubChem BioAssay)
RecA intein inh = blocks M. tuberculosis RecA intein splicing. inhibition, %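 (about 9 µM by stock and volumes)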. cell-free RecA intein splicing, fluorescence. P9WHJ3. 0.75% of 290,000 active; in the data active means inhibition above about 30%; inconclusive means no clear call, values can overlap the other calls;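 further: 0% = vehicle wells and 100% = reference inhibitor control wells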
Target sequence (P9WHJ3 whole entry, looked up): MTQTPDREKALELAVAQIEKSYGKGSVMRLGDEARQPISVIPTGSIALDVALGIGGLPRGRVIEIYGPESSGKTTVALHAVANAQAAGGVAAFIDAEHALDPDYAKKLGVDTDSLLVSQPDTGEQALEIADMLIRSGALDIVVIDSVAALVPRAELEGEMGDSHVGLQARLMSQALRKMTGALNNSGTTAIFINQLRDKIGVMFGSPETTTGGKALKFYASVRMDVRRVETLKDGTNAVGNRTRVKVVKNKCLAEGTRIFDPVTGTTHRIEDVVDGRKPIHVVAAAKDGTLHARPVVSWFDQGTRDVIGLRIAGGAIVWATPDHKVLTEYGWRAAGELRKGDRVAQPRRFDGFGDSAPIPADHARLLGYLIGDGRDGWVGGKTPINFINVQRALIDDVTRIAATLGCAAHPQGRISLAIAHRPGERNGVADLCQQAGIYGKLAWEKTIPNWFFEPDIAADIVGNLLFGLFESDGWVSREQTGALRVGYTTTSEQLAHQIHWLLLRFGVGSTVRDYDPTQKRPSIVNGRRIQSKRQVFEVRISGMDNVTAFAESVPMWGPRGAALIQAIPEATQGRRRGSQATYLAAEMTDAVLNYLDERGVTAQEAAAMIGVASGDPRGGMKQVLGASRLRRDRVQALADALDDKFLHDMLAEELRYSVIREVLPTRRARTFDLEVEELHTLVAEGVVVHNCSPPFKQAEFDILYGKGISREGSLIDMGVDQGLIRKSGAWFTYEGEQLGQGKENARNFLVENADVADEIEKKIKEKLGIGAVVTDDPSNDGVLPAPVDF
Mtb H37Rv = M. tuberculosis H37Rv growth inhibitors, H37Rv strain (AID 1626); M. tuberculosis H37Rv growth inhibition; higher % means a stronger effect; inhibition, % at 10 µM; hits with a dose series show IC50 in µM; 0.95% of 220,000 active;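 active means confirmed in a dose series; inconclusive means inhibition above 80% but not taken into the dose series; inactive means below 80% or under 30% at every dose of the series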;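 further: bacteria incubated seven days before Alamar blue readout; 0% = bacteria only wells and 100% = bacteria with antibiotic wells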
YopH PTP inh = inhibitors of Yersinia enterocolitica YopH tyrosine phosphatase. AID 898. 0.16% of 140,000 active. fluorescence Ex485/Em525. inhibition, %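 (about 10 µM by stock and volumes)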;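 active means inhibition of 50% or more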;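 further: controls were vehicle for no effect and minimum signal wells for full effect; inactives centre near -20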
Mtb bLac sens = beta-lactam sensitization of Mtb H37Rv; M. tuberculosis H37Rv growth with meropenem, percent inhibition; hits of this screen are not shown here; inhibition, % at 25 µM; 0.27% of 330,000 active;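 active means about 74% or more and at least 40 points above the plate without the antibiotic, then above 30% in a dose series; inconclusive means first-round hits that could not be retested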;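 further: growth measured after seven days incubation then overnight dye step; 0% = bacteria only wells and 100% = bacteria with antibiotic; twin plates without the antibiotic show which effects depend on it; some results filed as inactive read as strong as hits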
Arbovirus inh = blocks arbovirus infection; inhibition, % at 10 µM; 0.37% of 200,000 active; arbovirus infection cell-based antiviral screen; AID 1251;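 active means inhibition from about 30%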;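 further: bluetongue infection of BSR cells; cell survival read as ATP light after 72 h; 0% = infected wells without compound and 100% = uninfected wells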
Arbovirus inh repeat = recorded beside Arbovirus inh, whose call it bears; inhibition, %; measured here: 10K subset replicate screen; many hits read low in the repeat;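 first of two repeat runs on a subset; 0% = infected and 100% = uninfected wells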
Numbers without * were called inactive.

Results for O=C(Nc1cccc(S(=O)(=O)C(F)F)c1)c1ccc(S(=O)(=O)N2CCCCC2)cc1 ?
RecA intein inh: 1.1; Mtb H37Rv: 9.2%; Mtb bLac sens: -2.3; Arbovirus inh: -13.2

Results for CCCOc1ccc(C2C(=O)N(C3CCCCC3)CC(=O)N2C2CC2)cc1OC (stereo not given) ?
RecA intein inh: 0.7; Mtb H37Rv: -3.7%; YopH PTP inh: -22.0; Mtb bLac sens: -2.6; Arbovirus inh: 5.0

What do the screens show for `CC/S(C)=N/S(=O)(=O)c1ccc(C)cc1` (stereo not given)?
RecA intein inh: -2.3; Mtb H37Rv: -1.7%; YopH PTP inh: -5.1; Mtb bLac sens: 3.2; Arbovirus inh: 1.5

What do the screens show for `O=C(N/N=C/c1cc(Br)ccc1O)c1ccncc1`?
RecA intein inh: 2.1; Mtb H37Rv: inconclusive; Mtb bLac sens: 99.8

Results for O=C(CN1C(=O)COc2ccccc21)N1CCCC1 ?
RecA intein inh: -3.0; Mtb bLac sens: -5.1

What do the screens show for `CC1(C)SC(=S)N(NC(=O)Nc2cccc3ccccc23)C1N(O)C(=O)Nc1ccccc1` (stereo not given)?
RecA intein inh: 11.0; Mtb H37Rv: 51.0%; YopH PTP inh: -12.1; Mtb bLac sens: 97.8; Arbovirus inh: -38.2

What do the screens show for `O=C(NNC(=S)NC(=O)c1ccccc1[N+](=O)[O-])c1ccccc1[N+](=O)[O-]`?
RecA intein inh: -0.8; Mtb H37Rv: -10.6%; YopH PTP inh: -3.5; Mtb bLac sens: 3.6; Arbovirus inh: 3.9

Results for COc1ccccc1NC(=O)CSc1nnc(C2CCCCC2)n1N ?
RecA intein inh: 0.1; Mtb bLac sens: 4.0

What do the screens show for `CCN(CCCNC(=O)CCn1c(=S)[nH]c2cc3c(cc2c1=O)OCO3)c1cccc(C)c1`?
RecA intein inh: -1.2; Mtb bLac sens: 2.9

How did CCCC(=O)Nc1nc2c(C)c(Cl)ccc2s1 do in these assays?
RecA intein inh: 0.8; Mtb H37Rv: 6.7%; Mtb bLac sens: 5.8

How did CCn1cc(-c2cc(C(=O)O)c3ccccc3n2)cn1 do in these assays?
Mtb H37Rv: 2.4%; Mtb bLac sens: 1.5; Arbovirus inh: -7.4

Results for O=C(/C=C/c1cccc(Br)c1)N1CCN(c2cccc(C(F)(F)F)c2)CC1 ?
RecA intein inh: 12.9; Mtb H37Rv: -0.7%; YopH PTP inh: -22.2; Mtb bLac sens: 2.4; Arbovirus inh: 13.3

How did Cc1ccc(CNC(=O)C2CCC(CNc3c(N4CCC(C)CC4)c(=O)c3=O)CC2)cc1 (stereo not given) do in these assays?
RecA intein inh: -3.2; Mtb H37Rv: 3.1%; Mtb bLac sens: -3.0

Results for CCC(CC)NC(=O)Nc1ccc(F)c(Cl)c1 ?
RecA intein inh: 0.0; Mtb H37Rv: 46.3%; Mtb bLac sens: 18.9; Arbovirus inh: 8.0

What do the screens show for `C/C(CCc1ccco1)=N\NC(=O)CNc1c(Br)cc(Br)cc1Br`?
RecA intein inh: -2.8; Mtb H37Rv: 5.1%; Mtb bLac sens: 0.6; Arbovirus inh: 2.4

Results for Cc1[nH]c2ccccc2c1SCC(=O)N1CCC(C)CC1 ?
RecA intein inh: -3.0; Mtb H37Rv: 1.7%; Mtb bLac sens: 21.0; Arbovirus inh: -0.7

Results for C[n+]1ccccc1/C=C/c1ccc([N+](=O)[O-])cc1 ?
RecA intein inh: 0.3; Mtb bLac sens: inconclusive

How did CCCCn1c(N)c(N(CCOC)C(=O)c2cc3ccccc3cc2OC)c(=O)[nH]c1=O do in these assays?
RecA intein inh: -2.0; Mtb bLac sens: 4.8

How did CCn1c(Cc2ccccc2)nnc1SCC(=O)Nc1ccccc1 do in these assays?
RecA intein inh: -1.2; Mtb H37Rv: -7.6%; YopH PTP inh: -38.5; Mtb bLac sens: -2.2; Arbovirus inh: 4.8

How did CCOC(=O)N1CCc2c(sc3[nH]c(=S)[nH]c(=S)c23)C1 do in these assays?
RecA intein inh: -4.6; Mtb H37Rv: -0.6%; Mtb bLac sens: 9.6

What do the screens show for `COc1cc2c(c(OC)c1OC)-c1ccc(O)c(=O)cc1C(NC(C)=O)CC2` (stereo not given)?
RecA intein inh: -4.2; Mtb bLac sens: 5.4

Results for COc1ccc(C2SCC(=O)Nc3c2c(C)nn3C2CCOC(C)(C)C2)cc1OC (stereo not given) ?
RecA intein inh: 1.1; Mtb H37Rv: 1.6%; YopH PTP inh: -8.3; Mtb bLac sens: -22.8; Arbovirus inh: 8.5

How did CCOC(=O)COc1c(OC)cc(Cl)cc1C1Nc2ccccc2C(=O)N1c1ccc(F)cc1 (stereo not given) do in these assays?
RecA intein inh: 8.6; Mtb H37Rv: -9.6%; YopH PTP inh: -17.9; Mtb bLac sens: 4.2; Arbovirus inh: -12.0

How did Cc1ccccc1OCc1nnc2n1CC(C)S2 (stereo not given) do in these assays?
RecA intein inh: 0.4; Mtb H37Rv: -5.6%; YopH PTP inh: -24.9; Mtb bLac sens: -2.0; Arbovirus inh: 1.9; Arbovirus inh repeat: 1.6

What do the screens show for `COc1ccc(/C=N/O)cc1COc1ccc(NC(C)=O)cc1`?
RecA intein inh: -3.6; Mtb H37Rv: -0.5%; YopH PTP inh: 8.6; Mtb bLac sens: -6.8; Arbovirus inh: -0.6; Arbovirus inh repeat: 1.9

Results for CCc1ccc(CNCc2ccc(OCC(O)CN(C)Cc3ccccc3)cc2)nc1 (stereo not given) ?
RecA intein inh: -2.0; Mtb H37Rv: 1.7%; Mtb bLac sens: -1.5; Arbovirus inh: -20.3

How did O=C1c2ccccc2C(=O)N1CCCc1nc2ccccc2c(=O)n1CCCn1ccnc1 do in these assays?
RecA intein inh: 4.8; Mtb H37Rv: -10.3%; YopH PTP inh: -37.9; Mtb bLac sens: -5.0; Arbovirus inh: 7.3

What do the screens show for `C=CCN1C(=O)/C(=c2\sc3nc(=O)c(Cc4ccc(OC)c(OC)c4)nn3c2=O)c2ccccc21`?
RecA intein inh: 4.6; Mtb H37Rv: 5.2%; Mtb bLac sens: 0.9

What do the screens show for `O=C(c1cc(COc2c(F)cccc2F)on1)N1CCC(c2ccncc2)CC1`?
RecA intein inh: 0.8; Mtb H37Rv: 7.2%; Mtb bLac sens: -13.2; Arbovirus inh: 8.0

What do the screens show for `Cc1ccn2c(=O)nc(SCC(=O)NCc3ccccc3)nc2c1`?
RecA intein inh: -2.5; Mtb bLac sens: -6.9

Of the compounds above, these contain a Cl atom:
How did CCCC(=O)Nc1nc2c(C)c(Cl)ccc2s1 do in these assays?
RecA intein inh: 0.8; Mtb H37Rv: 6.7%; Mtb bLac sens: 5.8

Results for CCC(CC)NC(=O)Nc1ccc(F)c(Cl)c1 ?
RecA intein inh: 0.0; Mtb H37Rv: 46.3%; Mtb bLac sens: 18.9; Arbovirus inh: 8.0

How did CCOC(=O)COc1c(OC)cc(Cl)cc1C1Nc2ccccc2C(=O)N1c1ccc(F)cc1 (stereo not given) do in these assays?
RecA intein inh: 8.6; Mtb H37Rv: -9.6%; YopH PTP inh: -17.9; Mtb bLac sens: 4.2; Arbovirus inh: -12.0

Following part:
How did Cc1ccc(NC(=O)c2cccc(NC3=NC4CS(=O)(=O)CC4S3)c2)cc1C (stereo not given) do in these assays?
RecA intein inh: 0.6; Mtb bLac sens: 1.0

How did CC(C)(ONC(=O)Nc1ccccc1Cl)C(=O)O do in these assays?
RecA intein inh: -0.6; Mtb H37Rv: 1.8%; Mtb bLac sens: 1.4

How did Cc1cccc(C)c1NC(=O)C(NC=O)c1ccccc1 (stereo not given) do in these assays?
RecA intein inh: -1.6; Mtb H37Rv: 3.0%; YopH PTP inh: -14.6; Mtb bLac sens: -9.1; Arbovirus inh: 1.5

What do the screens show for `COc1ccc([N+](=O)[O-])cc1NC(=S)NC(NC(C)=O)C(Cl)(Cl)Cl` (stereo not given)?
RecA intein inh: -5.6; Mtb H37Rv: -13.7%; Mtb bLac sens: -8.6

Results for O=S(=O)(CCN1CCSCC1)c1ccc(Cl)cc1 ?
RecA intein inh: 0.3; Mtb H37Rv: -11.6%; Mtb bLac sens: -11.4

Results for O=C(O)c1cc2c(cc1Cl)N1CCCCCC1=NS2(=O)=O ?
RecA intein inh: -2.7; Mtb H37Rv: 6.3%; Mtb bLac sens: 4.5; Arbovirus inh: 6.5

Results for O=C(NC1CCCC1)c1n[nH]c2ccccc12 ?
RecA intein inh: -0.8; Mtb H37Rv: 1.4%; Mtb bLac sens: -0.8; Arbovirus inh: 0.5

What do the screens show for `COc1ccc(NC(=O)c2ccc3ccccc3n2)cc1S(=O)(=O)N1CCCCC1`?
RecA intein inh: 4.9; Mtb H37Rv: 7.9%; YopH PTP inh: -33.4; Mtb bLac sens: 7.7; Arbovirus inh: 13.7

How did COc1ccc2[nH]c(=O)c(CN(C(=O)NC3CCCCC3)C3CCCC3)cc2c1 do in these assays?
RecA intein inh: -2.5; Mtb H37Rv: 1.0%; YopH PTP inh: -41.6; Mtb bLac sens: 0.3; Arbovirus inh: 4.9

What do the screens show for `O=C(NCCOc1ccc(F)cc1)C1CCC(=O)N(CCN2CCOCC2)C1` (stereo not given)?
RecA intein inh: 0.0; Mtb bLac sens: -3.3

How did Cn1c(NC(=O)C(C)(C)Oc2ccc(Cl)cc2)cc(=O)n(C)c1=O do in these assays?
RecA intein inh: -0.3; Mtb H37Rv: 48.3%; YopH PTP inh: -19.2; Mtb bLac sens: -2.0; Arbovirus inh: 8.2; Arbovirus inh repeat: 0.5

How did CCOC(=O)N1CCN(c2cc(=O)n(Cc3ccc(F)cc3)c(=O)[nH]2)CC1 do in these assays?
RecA intein inh: -2.9; Mtb H37Rv: 7.5%; YopH PTP inh: 30.7; Mtb bLac sens: 1.1; Arbovirus inh: 2.4

What do the screens show for `c1ccc(CCn2c(SCc3ccccc3)nnc2-c2ccncc2)cc1`?
RecA intein inh: 4.6; Mtb H37Rv: 7.0%; YopH PTP inh: -6.4; Mtb bLac sens: 1.8; Arbovirus inh: -7.4

How did COc1cccc(NC(=S)N2CCN(C(c3ccccc3)c3ccccc3)CC2)c1 do in these assays?
RecA intein inh: 5.2; Mtb H37Rv: 5.6%; YopH PTP inh: -34.7; Mtb bLac sens: -7.2; Arbovirus inh: -13.9

Results for CCN1CCN(c2ccc(NC(=O)c3cccc4ncccc34)cc2)CC1 ?
RecA intein inh: 1.5; Mtb H37Rv: -5.9%; YopH PTP inh: -45.6; Mtb bLac sens: -8.1; Arbovirus inh: -5.8

How did CCN(CC)S(=O)(=O)c1ccc(NC(=O)c2cc(=O)[nH]c3ccccc23)cc1 do in these assays?
Mtb H37Rv: 6.3%; Mtb bLac sens: 0.3; Arbovirus inh: 0.9

Results for O=C(CNC(=O)c1cc(=O)[nH]c2ccccc12)Nc1ccc(F)c(F)c1 ?
RecA intein inh: -2.9; Mtb H37Rv: 1.5%; Mtb bLac sens: -2.6; Arbovirus inh: 4.8

What do the screens show for `Cc1ccc(/C=[N+](\[O-])c2ccc(N(C)C)cc2)c2nsnc12`?
RecA intein inh: 1.4; Mtb H37Rv: inconclusive; Arbovirus inh: -12.3

What do the screens show for `Cc1ccc2[nH]c(O)c(N=NC(N)=S)c2c1`?
RecA intein inh: 4.4; Mtb H37Rv: 4.5%; Mtb bLac sens: -0.6

Results for CC(NC1=NCCS1)c1ccccc1 (stereo not given) ?
RecA intein inh: 1.4; Mtb H37Rv: -6.2%; Mtb bLac sens: -13.1; Arbovirus inh: 3.4

What do the screens show for `N#CC1(Cc2ccccc2)c2ccccc2C=CN1C(=O)c1ccccc1` (stereo not given)?
RecA intein inh: 18.6; Mtb H37Rv: -6.7%; YopH PTP inh: -22.6; Mtb bLac sens: -8.7; Arbovirus inh: 4.3

How did O=C1CC(N2CCCCC2)C(=O)N1c1ccccc1 (stereo not given) do in these assays?
RecA intein inh: -0.1; Mtb H37Rv: -1.7%; YopH PTP inh: 5.4; Mtb bLac sens: -1.7; Arbovirus inh: -2.5

How did COc1cccc2c1cc1c(=O)n(CC(=O)N3CCC(C)CC3)nc(C)n12 do in these assays?
RecA intein inh: -2.2; Mtb bLac sens: inconclusive

How did Cc1cc(=O)oc2cc(OCC(=O)N3CCOCC3)ccc12 do in these assays?
RecA intein inh: -6.4; Mtb H37Rv: 13.3%; YopH PTP inh: 1.8; Arbovirus inh: -4.4

How did CSc1ccccc1NC(=O)Nc1cccc(Cl)c1Cl do in these assays?
RecA intein inh: -3.1; Mtb H37Rv: -3.3%; YopH PTP inh: 8.5; Mtb bLac sens: 2.7; Arbovirus inh: -2.0

Results for CCOCC(=O)Nc1nc2ccc(OCC)cc2s1 ?
Mtb H37Rv: 14.9%; YopH PTP inh: 13.4; Mtb bLac sens: 88.8; Arbovirus inh: -5.1

Results for Cc1cc(N)c2ccccc2n1 ?
RecA intein inh: 0.5; Mtb H37Rv: -4.5%; Mtb bLac sens: 0.8; Arbovirus inh: -1.5

An excerpt. The share of hits here may be higher or lower than overall.
